# Screens as filed in PubChem.
# Vaccinia mCherry – qHTS for Stage-Specific Inhibitors of Vaccinia Orthopoxvirus: mCherry Reporter Primary qHTS | Vaccinia virus mCherry reporter infection, fluorescence; about a quarter of the inactives have no number | Potency, µM (top dose mostly 36.5 µM), for the others: top-dose activity change, negative = inhibition, actives largely listed as inhibitors | actives 0.63% (n = 310,000) | AID 720579, 2013; active = well fitted inhibition curve with a large enough effect; inconclusive = small, poorly fitted or top-dose-only effect; inactive = no such curve, though single readings can be large or run the other way; tested in A549 cells; also: nearly all actives have a fitted effect of over 35% in size; inactives centre near -10
# Vaccinia Venus – qHTS for Stage-Specific Inhibitors of Vaccinia Orthopoxvirus: Venus Reporter Primary qHTS. Potency, µM (series often up to 36.5 µM), for inactives: top-dose activity change, negative = inhibition, actives largely listed as inhibitors. AID 720580, 2013. Vaccinia virus Venus reporter expression, fluorescence. actives 0.46% (n = 330,000); active means well fitted inhibition curve with a large enough effect; inconclusive means small, poorly fitted or top-dose-only effect; inactive means no such curve, though single readings can be large or run the other way; tested in A549 cells; also: nearly all actives have a fitted effect of over 30% in size; inactives centre near -10
# Numbers without * were called inactive; i = inactive; u = inconclusive; x = no result given; & = joins results of further samples; [ ] = another dose, or the depositor's remark. % is scaled to controls: 0 for no effect and ±100 for the full control effect; potency is read from the fitted curve at half-maximal effect.
Structure | Vaccinia mCherry | Vaccinia Venus
CC(=O)N(C(C)=O)c1ncn(C)c1S(=O)(=O)Nc1ccccc1 | -14.8% | -13.2%
CCCC12CN3CC(C)(CN(C1)C3c1ccc(CC)cc1)C2=O (configuration not stated) | -7.1% | -2.3%
Cc1ccsc1/C=N/NC(=S)NCCc1ccccc1 | -14.3% | -1.8%
O=C(Nc1nc2ccccc2s1)c1ccc2c(c1)OCO2 | -21.2% | -15.7%
CC1CCN(C(=O)CN(c2ccc3c(c2)OCO3)S(C)(=O)=O)CC1 | u | 1.6%
COc1ccc2c(c1)CCc1cnc(N)nc1-2 | -14.8% | -12.0%
Cc1ccsc1/C=N/NC(=O)c1ccc2ccccc2c1 | -11.0% | -12.3%
CCOc1ccc(C2CC=C(C(C)=O)CN2S(=O)(=O)c2ccc(C)cc2)cc1 (configuration not stated) | 0.7% | -10.8%
CC(=O)CSc1nc(CCc2ccccc2)c(C#N)c(=O)[nH]1 | i | 0.3%
CN(C)c1ccc(CNc2nc(-c3ccccc3)nn2S(C)(=O)=O)cc1 | u | -11.7%
CCN(CC)S(=O)(=O)c1ccc2c(c1)nc(SCC(=O)NCC1CCCO1)n2CC (configuration not stated) | i | -10.4%
COCCC(=O)N1CCC(Oc2ccc(C(=O)N3CCCCCC3)cc2)CC1 | -4.3%[7.34 µM] | 7.6%[7.34 µM]
CCCCn1c(=O)n(CC(=O)Nc2ccc(OC)c(Cl)c2)c(=O)c2c1nc(CO)n2CCC | -27.4% | -11.3%
CC(=O)Nc1ccc(S(=O)(=O)NCCc2cc3c(C)ccc(C)c3[nH]c2=O)cc1 | 9.4% | -4.6%
COc1ccc(CCN2C(=O)c3[nH]nc(-c4ccccc4O)c3C2c2ccc(OC)cc2)cc1 (configuration not stated) | 1.0%[7.34 µM] | -0.1%[7.34 µM]
CCOC(=O)N1CCN(C2=CC(=O)OC23CCCCC3)CC1 | i | -7.8%
COc1ccccc1N1CCN(S(=O)(=O)CCNC(=O)COc2ccccc2)CC1 | i | -1.0%
Cc1ccc(NC(=O)/C=C2\NC(=O)CS2)cc1 | i | -3.6%
COc1ccc(N(C(=O)Cc2cccs2)C(C(=O)NC2CCCC2)c2ccncc2)cc1 (configuration not stated) | 2.7% | 0.4%
COc1cc(/C=C2\SC(=O)N(CCNC(=O)c3cnc(C)cn3)C2=O)cc(OC)c1OC | -7.4% | 7.3%
COc1ccc(C2NC(=O)NC3=C2CCc2ccccc23)cc1 (configuration not stated) | x | u
O=C(Cc1noc2ccccc12)NNC(=S)Nc1ccccc1 | 2.9% | -4.4%
Cc1nn(-c2ccccc2)c(Cl)c1C(=O)NCC(C)c1ccccc1 (configuration not stated) | 3.0% | -7.5%
CC1CCC(NC(=O)c2cccn2C)CC1 (configuration not stated) | -7.3% | -22.9%
O=C(CCCC(=O)N1CCN(c2ccccc2F)CC1)N1CCN(c2ccccc2F)CC1 | x | -12.2%
COc1cc(CCc2ccc3c(c2)OCO3)oc(=O)c1 | i | -0.1%
CCOC(=O)c1nn(-c2ccccc2)c(-c2ccccc2)c1C(=O)c1ccccc1 | x | -7.8%
O=C(CSc1n[nH]c(-c2ccccc2Cl)n1)NC1CCCCC1 | u | 0.0%
CCC(=O)Nn1c(C2CCC2)nc2ccccc2c1=O | i | -8.2%
CCCn1cnc2c(SCc3ccccn3)nc(N)nc21 | i | -14.3%
Fc1ccc(-n2ncc3c(NCCCN4CCOCC4)ncnc32)cc1 | -0.2% | 6.6%
Cc1c(Cl)cccc1NC(=S)N(CCN(C)C)C(C)c1ccccn1 (configuration not stated) | u | -16.0%
O=C(NC1CC1)C1CCN(C(=O)c2ccc(Cl)cc2Cl)CC1 | -15.5% | 1.5%
COc1ccc(C(=O)n2cc(C(=O)c3cc(C)ccc3O)cn2)cc1OC | -14.5% | -20.5%
O=C(NC1CCCCC1)C1c2ccccc2OCC(=O)N1CC(F)(F)F (configuration not stated) | i | 2.1%
CC(C)CC(=O)NC1(C(F)(F)F)C(=O)Nc2c1c(=O)n(C)c(=O)n2C (configuration not stated) | x | -6.8%
COc1cc(C(O)c2nc(-c3cccc(C(=O)O)c3)cs2)ccc1F (configuration not stated) | 16.2% | 2.2%
C#CCN(C[C@H]1[C@H](OC(=O)NCc2ccccc2F)[C@H](OC(=O)NCc2ccccc2F)C[C@H]2C(=O)N(c3ccccc3)C(=O)[C@@H]12)S(=O)(=O)c1ccc(C)cc1 | -19.8% | -14.8%
Fc1cccc2sc(Nc3nc4c(F)cccc4s3)nc12 | -19.0% | -10.1%
COc1ccc(C2C(=O)N(C3CCCCC3)CC(=O)N2CC2COc3ccccc3O2)cc1 (configuration not stated) | i | -8.1%
Cc1c(C(=O)NCC2CCCO2)oc2ccc(S(=O)(=O)N3CCCCC3)cc12 (configuration not stated) | 5.0% | -1.2%
COc1ccc(NC(=O)C2CCCN2C(=O)NCc2ccccc2)cc1 (configuration not stated) | -3.0% | -10.4%
NC(=O)C1CCN(Cc2nc3c(Br)cc(Br)cc3c(=O)[nH]2)CC1 | i | 4.6%
COc1cc(OC)cc(C(=O)Nc2ccc3c(c2)COC3=O)c1 | -23.1% | -2.6%
O=C(OCCN1CCCCC1)c1cccc(F)c1 | -10.9% | -6.7%

# Reformatted as labelled records: part of the list above
Cc1nn(-c2ccccc2)c(Cl)c1C(=O)NCC(C)c1ccccc1 (configuration not stated)
  Vaccinia mCherry = 3.0%	Vaccinia Venus = -7.5%

CC1CCC(NC(=O)c2cccn2C)CC1 (configuration not stated)
  Vaccinia mCherry = -7.3%	Vaccinia Venus = -22.9%

# Continuation.
Structure | Vaccinia mCherry | Vaccinia Venus
CCCC(=O)N1CCCC1(C)C(=O)NCc1c(F)ccc(C)c1F (configuration not stated) | 6.2% | -2.9%
COc1ccc(OC(=O)CCN2C(=O)C3C4C=CC(C4)C3C2=O)cc1 (configuration not stated) | -0.8% | -1.1%
O=C(CSc1nncn1-c1ccccc1)Nc1ccccc1F | -13.3% | -11.4%
CCN(CC)C(=O)CCCC(=O)N(CC)CC | i | -0.1%
Cn1c(=O)n(C)c2cc(S(=O)(=O)Nc3ccccc3)ccc21 | i | -6.3%
O=[N+]([O-])/C(N=Nc1ccccc1)=N\Nc1ccccc1 | -13.5% | -10.2%
Cc1ccc(-n2c(N)c(C#N)c(-c3ccc(Cl)cc3)c(C#N)c2=O)cc1 | x | -22.1%
COc1ccccc1N1CC(C(=O)Nc2ccc3c(c2)OCO3)CC1=O (configuration not stated) | -5.3% | -6.7%
CC(C)C[C@H]1CNC(=S)N1CC1CCN(CCC23CC4CC(CC(C4)C2)C3)CC1 | u | u
c1ccc(C(c2nnnn2C2CCCC2)N2CCN(c3ccccc3)CC2)cc1 (configuration not stated) | -13.4% | -11.5%
COC(=O)[C@@]1(Cc2ccc(F)cc2)[C@H]2c3cc(C(=O)N(C)C)n(CCc4c[nH]c5ccc(OC)cc45)c3C[C@H]2CN1C(=O)c1ccccc1 | u | u
Cc1c(C(=O)N2CCCC2)sc(NC(=O)c2ccc(Cl)cc2)c1C#N | -19.4%[1.46 µM] | -18.5%
COc1cc(/C=C/C(=O)N2CCN(c3n[nH]c(=O)[nH]c3=O)CC2)cc(OC)c1OC | -5.4% | -14.9%
C=C(C)c1sc(-c2ccc(Cl)cc2)nc1C | 13.9% | 4.9%
Cc1cc(C)cc(NC(=O)Cc2ccc(S(=O)(=O)N3CCCC3)s2)c1 | -16.3% | -24.3%

# Next section.
# Sequence of screens – Vaccinia mCherry	Vaccinia Venus
O=C(Nc1ccc(Cl)cc1)N1CCN(c2ccc3nnc(-c4ccccc4)n3n2)CC1
 : 10µM*	u
N#CC1C(=O)NC(c2ccccc2)=CC1c1ccccc1 (configuration not stated)
 : u	-7.3%
CC(=O)Nc1ccc(C=NNC(=O)C2CC2)cc1
 : i	-8.5%
CC12CCC(c3c1nc1ccccc1[n+]3[O-])C2(C)C (configuration not stated)
 : i	-7.2%
O=C(CC1C(=O)N(c2ccc(F)cc2)C(=O)N1Cc1ccc2c(c1)OCO2)Nc1ccc(F)cc1 (configuration not stated)
 : 0.5%	-3.8%
O=C(O)c1cnn(-c2nc(-c3ccc(Cl)cc3)cs2)c1C(F)(F)F
 : -0.1%	3.0%
CCCCN(C)CCNC(=O)C1CCCN(S(=O)(=O)c2ccc3c(c2)oc(=O)n3C)C1 (configuration not stated)
 : 2.7%	-6.1%
Cc1ccc(CC(=O)Nc2cccc(C(=O)Nc3c(C)n(C)n(-c4ccccc4)c3=O)c2)cc1C
 : i	-19.7%
CCCCCCN1C[C@@H](n2cc(C3CC3)nn2)[C@H](O)C[C@@H]1c1ccc(C)cc1
 : i	-29.5%
Cn1c(=O)c2c(nc(SCc3ccccc3)n2Cc2ccc(Cl)cc2)n(C)c1=O
 : -9.0%	-18.7%
COc1ccc(C(c2nnnn2CCc2ccccc2)N2CCN(C3CCCC3)CC2)cc1OC (configuration not stated)
 : -19.2%	-14.4%
O=C(CN(C(=O)CCC(=O)Nc1nccs1)c1ccc2c(c1)OCO2)NCc1ccccc1
 : -9.7%	-6.1%
CC1(C)CC(=O)C2=C(C1)NC(Nc1nc3ccccc3o1)=NC2c1ccccc1 (configuration not stated)
 : u	u
COc1cc(C(=O)OCC(=O)Nc2ccccc2)cc2c1OCCO2
 : -3.3%	-21.1%
CC(=O)c1cc2c(cc1NC(=O)CSc1nc3ccc(C)cc3[nH]1)OCO2
 : u	-29.4%
O=c1nc(Oc2ccccc2)nc2ncccn12
 : u	-23.7%
COc1ccc(CCNS(=O)(=O)c2cn(C)c(=O)n(C)c2=O)cc1
 : 7.6%	7.3%
C=C1C=C(C)n2ncc(C(=O)N(CCc3ccccc3)Cc3ccccc3)c2N1
 : -12.8%	-10.7%
COCCCNC(=O)C[C@@H]1C[C@@]2(C(=O)OC)CC(C)(C)CC=C2N(Cc2ccco2)C1=O
 : i	-11.4%
COC(=O)c1ccccc1NC(=O)C1CCN(C(=O)N2CCOc3ccccc32)CC1
 : 4.2%	-8.7%
Cc1cc(NC(=O)CN2CCN(S(=O)(=O)c3ccc4ccccc4c3)CC2)no1
 : i	-8.6%
NC(=O)c1ccccc1N/C=C/C(=O)c1cccs1
 : -9.9%	-11.1%
COc1cc(F)ccc1S(=O)(=O)N1CCN(Cc2ccccc2)CC1
 : -14.6%	-5.9%
Cc1nc(C)c(C(=O)C2=C(O)C(=O)N(CCN(C)C)C2c2cccs2)s1 (configuration not stated)
 : -15.3%[1.46 µM]	-7.7%
CCO[C@@H]1OC(C(=O)NC2CC2)=C[C@H](c2ccc(Br)cc2)[C@H]1CCCO
 : -15.5%	-16.2%
O=C1CCCc2nc(N3CCN(C(=O)c4ccco4)CC3)ncc21
 : -8.4%	-8.6%
CCCC1S/C(=N/N=C/c2ccc(OC)cc2)N(Cc2ccccc2)C1=O (configuration not stated)
 : -17.1%	-11.7%
Cc1ccc(-c2noc(CCC(=O)NC3CCN(Cc4ccccc4)CC3)n2)cc1
 : x	u
CCSc1nnc(NC(=O)CSc2nnc(CNC(=O)c3ccccc3F)o2)s1
 : -13.1%	-11.3%
COc1ccc(-n2c(C)nc3cc(C(=O)NCc4ccc5c(c4)OCO5)ccc32)cc1
 : -12.5%	-13.4%
CCOC(=O)N1CCN(C(=O)COc2cccc3c2CCN(Cc2ccccc2F)C3=O)CC1
 : i	-20.9%
CCN(CC)C(=O)CSc1nnc(-c2ccccc2)o1
 : -13.3%	-11.2%
CCOC(=O)C1=CCN(S(=O)(=O)c2ccc(C)cc2)C1c1cccc(Cl)c1 (configuration not stated)
 : 7.2%	-6.5%
Cc1nn2c(=O)cc(COC(=O)c3ccc(NC(=O)c4cccc(Br)c4)cc3)nc2s1
 : -7.2%	-26.5%
CCCn1c2ccccc2c2cnn(CC(=O)N(Cc3ccccc3)C(C)C)c(=O)c21
 : -10.7%	-13.4%
CCN(CC)CC(O)CCCCCCCCC(=O)OC (configuration not stated)
 : -14.1%	-2.4%
Cc1cc(C)c2nc(C(F)(F)F)c(C#N)c(N)c2c1
 : -12.7%	-10.5%
C/C=C(/C(=C/C)c1ccc(O)cc1)c1ccc(O)cc1
 : -0.7%&-10.6%	-20.9%&-20.8%
Cc1ccc(NC(=O)COC(=O)C2C3CC4OC(=O)C2C4C3)cc1 (configuration not stated)
 : i	-7.5%
CCCCn1nnnc1C(c1ccccc1)N1CCN(c2ccccc2OC)CC1 (configuration not stated)
 : i	2.0%
CCOC(=O)c1sc(NC(C)=O)cc1C
 : i	-24.8%
COc1ccc(NC(=O)CN(C)CC(=O)Nc2ccccc2SC)cc1Cl
 : -3.5%	-23.2%
Cc1ccc(N(CC(=O)NCC(C)c2ccccc2)S(=O)(=O)N(C)C)cc1 (configuration not stated)
 : -0.3%	-11.5%
CC1=CC2=NC(=O)/C(=C\c3cccn3CCOc3ccc(C)c(C)c3)C(=N)N2O1
 : -5.2%	-21.7%
Cc1noc(C)c1NC(=O)N(C)C[C@H]1OCc2cnnn2CCCC(=O)N([C@H](C)CO)C[C@@H]1C
 : i	1.6%
COc1ccc2c(c1)cc(C(=O)N[C@H](C(=O)N1CCC(C(=O)O)CC1)C(C)C)n2C
 : -12.1%	-5.0%

# Molecules listed so far that contain bromine (3):
# Sequence of screens – Vaccinia mCherry	Vaccinia Venus
NC(=O)C1CCN(Cc2nc3c(Br)cc(Br)cc3c(=O)[nH]2)CC1
 : i	4.6%
CCO[C@@H]1OC(C(=O)NC2CC2)=C[C@H](c2ccc(Br)cc2)[C@H]1CCCO
 : -15.5%	-16.2%
Cc1nn2c(=O)cc(COC(=O)c3ccc(NC(=O)c4cccc(Br)c4)cc3)nc2s1
 : -7.2%	-26.5%
